From PubChem BioAssay
Beta cell apopt = blocks beta cell apoptosis; INS-1E cytokine-induced death, ATP luminescence, 48 h; percent of positive-control rescue, neutral wells zero; protection from apoptosis, % (concentration not given with the values); actives 0.8% (n = 300,000);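 active = all replicates at 75% or more, or half of them and the mean; inconclusive = half reach 75% but not the mean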;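 also: 0% = cytokine-treated negative control wells and 100% = positive control rescue; higher means more ATP so stronger rescue from cytokine killing; wells of about 40 µL received 100 nL stock; the first replicate is given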
FGF22 binding = binders of recombinant human FGF22 by thermal shift | Q9HCT0 | SYPRO orange fluorescence; percent of sucrose octasulfate shift, DMSO zero | calls only at 9.99 µM | actives 1.5% (n = 340,000) | AID 651658;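 active = melting point raised past a set limit in the mean and every replicate; inconclusive = no clear call; three in four hits are not shown here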
Target sequence (Q9HCT0 whole entry, looked up): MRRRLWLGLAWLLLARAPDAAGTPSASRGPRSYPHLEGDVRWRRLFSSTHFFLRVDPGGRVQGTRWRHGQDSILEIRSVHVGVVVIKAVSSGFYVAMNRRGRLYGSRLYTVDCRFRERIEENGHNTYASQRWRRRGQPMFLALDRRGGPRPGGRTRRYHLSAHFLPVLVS
Bfl-1 A1 inh = inhibitors of the anti-apoptotic protein A1, read as caspase activation. MEF A1-2A-BIM cells, Caspase-Glo 3/7 luminescence, 3 h; percent of clofoctol response, vehicle zero. caspase activation, % (test concentration not listed). actives 0.066% (n = 330,000);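 active = over half of replicate activation scores above 10%, or exactly half above 10 with the replicate mean above 10; inconclusive = replicate mean below 10 yet half the replicates above 10; inactive = over half of replicates below 10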;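 also: wells of about 30 µL received 50 nL stock; many hits fall short of the cut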
Ecoli rRNA inh = selective bacterial rRNA inhibition in E. coli; E. coli WT GFP vs humanized-ribosome RFP mutants, fluorescence, 24 h; hits give low values; DMSO median 0, no signal -100; actives 1.6% (n = 350,000); GFP signal change (wild-type ribosome), % (concentration not given with the values);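 active = significant combined selectivity score with lowered wild-type GFP, culture density cut under 30%, mutant RFP and density less affected; inactive = any of these conditions unmet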; also: one replicate is shown; some compounds called inactive have numbers as strong as hits
T cruzi repl = blocks replication of Trypanosoma cruzi | actives 1.4% (n = 300,000) | T. cruzi beta-gal in NIH3T3, luminescence, 90 h | inhibition, % (test concentration not listed);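 active = mean inhibition across valid replicates above about 55%, limit read from the data; inconclusive = mean below that limit but half or more replicates reach it; inactive = mean below it, under half of replicates reach it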;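 also: signal also drops with host cell toxicity which is not excluded here; 0% = plate median of DMSO wells and 100% = zero luminescence signal; higher percent means less beta-gal luminescence so fewer parasites; stock transfer was 50 nL into about 50 µL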
MLL AF4-AF9 inh = MLL-AF4/AF9 protein interaction inhibition | P42568 | AlphaScreen, biotin-AF4 peptide binding to FLAG-AF9 | inhibition, % at 10 µM | actives 0.47% (n = 350,000) | AID 651704;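 active = every replicate reaching a set inhibition limit, whatever the replicate mean, cut at about 25% in these data; inconclusive = mean inhibition reaches that limit but some replicates miss it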;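 also: 0% = plate neutral control median and 100% = total signal loss; the record names both 10 and 1 µM as test concentration; the first replicate is given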
Target sequence (P42568 whole entry, looked up): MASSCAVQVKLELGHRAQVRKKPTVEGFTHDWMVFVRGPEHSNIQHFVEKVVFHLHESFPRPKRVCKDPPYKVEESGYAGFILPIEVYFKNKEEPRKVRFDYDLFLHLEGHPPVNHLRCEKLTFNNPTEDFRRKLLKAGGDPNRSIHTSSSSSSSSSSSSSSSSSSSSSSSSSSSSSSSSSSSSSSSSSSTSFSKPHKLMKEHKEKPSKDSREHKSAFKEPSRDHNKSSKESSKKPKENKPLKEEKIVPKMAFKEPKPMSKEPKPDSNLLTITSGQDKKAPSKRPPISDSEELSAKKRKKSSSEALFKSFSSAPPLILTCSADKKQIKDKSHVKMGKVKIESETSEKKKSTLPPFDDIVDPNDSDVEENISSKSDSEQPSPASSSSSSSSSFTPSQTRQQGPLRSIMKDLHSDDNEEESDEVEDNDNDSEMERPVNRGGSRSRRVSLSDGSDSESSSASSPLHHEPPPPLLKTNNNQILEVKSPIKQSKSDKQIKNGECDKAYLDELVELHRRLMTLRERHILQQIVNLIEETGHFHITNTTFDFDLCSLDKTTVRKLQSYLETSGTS
UCH37 inh = blocks the human deubiquitinase UCH37. purified proteasome/UCH37, Ub-AMC cleavage fluorescence. inhibition, % (no concentration beside the values). actives 0.33% (n = 330,000). AID 588478;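 active = mean of two replicates above 20%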;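 also: 0% = compound-free wells with enzyme and 100% = wells lacking proteasome; stock transfer was 100 nL into about 20 µL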
Target sequence (Q9Y5K5 whole entry, looked up): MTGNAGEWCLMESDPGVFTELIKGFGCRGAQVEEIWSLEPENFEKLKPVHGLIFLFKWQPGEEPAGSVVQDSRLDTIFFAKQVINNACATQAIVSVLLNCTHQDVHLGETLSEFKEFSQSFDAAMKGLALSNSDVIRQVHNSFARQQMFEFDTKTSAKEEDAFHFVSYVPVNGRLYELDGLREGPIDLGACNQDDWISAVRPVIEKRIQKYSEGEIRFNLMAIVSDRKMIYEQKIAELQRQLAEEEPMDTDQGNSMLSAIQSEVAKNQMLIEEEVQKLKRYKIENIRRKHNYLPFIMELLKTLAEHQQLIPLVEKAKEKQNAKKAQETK
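Material: human UCH37 enzyme supplied as purified proteasome complex. Measure: % inhibition of Ub-AMC cleavage fluorescence. Medium: pH 7.4 Tris-HCl (50 mM) with ovalbumin, ATP-MgCl2, DTT. Times: 30 min preincubation with enzyme, 25 min cleavage at room temperature. Detection: AMC fluorescence intensity at 355/460 nm.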
E coli growth = inhibitors of Escherichia coli growth; OD600, 23 h; hits give low values; OD600 absorbance (concentration not given with the values); actives 0.21% (n = 330,000);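 active = OD600 absorbance below the run mean of sample wells minus 3.6 SD, in any replicate, cut at about 0.56 in these data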;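 also: stock transfer was 300 nL into about 60 µL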
Ecoli rRNA inh OD600 = also measured in Ecoli rRNA inh; calls as there; OD600 change, %; measured here: OD600 growth;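 optical density of the mix in the first replicate; 0 = DMSO median and -100 = no signal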
Ecoli rRNA inh RFP = second read-out of Ecoli rRNA inh, no call of its own (marks repeat the call); RFP signal change, %; measured here: RFP humanized mutant strains;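 first replicate; 0 = DMSO median and -100 = no signal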
* marks the source's active call; other numbers are inactive results; i = inactive; ? = inconclusive; . = not tested or not shown. This is a subset (hit frequency here may not be typical).

SMILES	Beta cell apopt	FGF22 binding	Bfl-1 A1 inh	Ecoli rRNA inh	Ecoli rRNA inh OD600	Ecoli rRNA inh RFP	T cruzi repl	MLL AF4-AF9 inh	UCH37 inh	E coli growth
CCCS(=O)(=O)c1nc(S(=O)(=O)c2ccc(C)cc2)c(NCCN2CCOCC2)s1	-8	.	0.3	.	.	.	29	.	4.5	0.67
CCc1cccc(C)c1NC(=O)CN1C(=O)c2ccccc2S1(=O)=O	.	i	1.5	1	3	1.8	3	0.9	5.9	0.76
O=C(CCc1ccccc1)Nc1ccc(S(=O)(=O)N2CCOCC2)cc1	-5	i	0.2	-1	6	-2.2	-2	2.0	1.0	0.68
CCOC(=O)c1nnsc1Nc1ccc(C)c(C)c1	-1	i	0.3	-11	-16	-3.2	-11	-2.3	1.2	0.71
c1ccc(CSc2ncnc3sccc23)cc1	2	i	0.1	-27*	-21*	-3.8*	-3	-2.5	3.7	0.7
CN(CC(=O)Nc1ccccc1Cl)C1CCCCC1	2	i	-0.4	-4	-2	-2.3	9	-5.7	-0.1	0.61
O=[N+]([O-])c1ccc(F)cc1OCc1nc(-c2cccs2)no1	.	i	.	-3	0	0.4	0	3.3	2.5	0.69
CN(Cc1ccc(F)cc1)C(=O)c1cc(S(=O)(=O)N2CCCCC2)ccc1N1CCOCC1	.	i	.	2	8	-0.8	.	-3.3	0.6	0.69
O=C(O)c1ccccc1N(c1ccccc1)c1ccccc1	-13	i	-0.1	7	0	-1.7	-5	2.3	.	.
CCOC(=O)C1=C(C)OC(N)=C(C#N)C1c1cc(SCC)oc1C (centres undefined)	-6	i	-0.6	5	3	2.5	6	3.7	4.2	0.69
COC(=O)CSc1nc2[nH]ncc2c(=O)[nH]1	6	i	-0.5	2	12	-0.7	-18	-6.1	-0.2	0.67
COc1ccc(CNCc2ccncc2)cc1OC	1	i	0.2	5	7	-2.0	-3	-10	4.7	0.61
CCS(=O)(=O)N1Cc2ccccc2CC1C(=O)Nc1nc2c(C)cccc2s1 (centres undefined)	3	.	-0.2	.	.	.	4	.	0.4	.
S=C1NC2=C(CCCC2)C2(CCCCC2)N1	-7	.	0.2	.	.	.	-22	.	5.9	0.72
O=C(Cc1ccccc1)Nc1ccc(N2CCCC2)cc1	-5	.	0.0	.	.	.	6	.	-0.4	0.77
CCOc1cc(C)ccc1OCc1nnc(SCC(=O)Nc2cccc(C(=O)O)c2)n1-c1ccccc1	1	i	0.6	-5	2	-2.2	1	1.0	8.1	0.67
O=C(c1cccc(S(=O)(=O)N2CCOCC2)c1)N1CCC(Cc2ccccc2)CC1	5	i	0.6	-11	-39	1.5	.	5.5	1.8	0.66
CCOC(=O)C1CCCC(NS(=O)(=O)c2ccc(NC(C)=O)cc2)C1 (centres undefined)	-1	.	1.0	.	.	.	-12	.	5.2	0.73
CCN(C[C@H]1N[C@@](CC)(C(=O)OC)[C@H]2C(=O)N(Cc3ccccc3)C(=O)[C@@H]12)C(=O)C1CCCCC1	-12	i	0.1	-1	-6	0.0	.	1.1	-0.1	0.68
CCc1ccc([C@@H]2CC=C(C(=O)O)[C@H](c3ccc(C(C)(C)C)cc3)N2S(=O)(=O)c2ccc(C)cc2)cc1	4	.	-0.2	-6	-10	-0.4	.	-0.2	13	0.69
COc1ccc2cnn(-c3ccccc3C)c(=O)c2c1OC	2	.	0.9	.	.	.	-15	.	0.4	0.73
OCC[C@@H]1C[C@@H](O)[C@H](O)[C@@]2(CCc3ccccc3CO2)O1	-7	i	0.0	4	15	20	-15	-25	2.7	.
COc1ccccc1CNC(=O)C1Cc2ccccc2C(=O)O1 (centres undefined)	2	.	-0.1	.	.	.	-1	.	1.7	0.68
O=C(CC1C(=O)NCCN1CC(c1ccccc1)c1ccccc1)NCCc1cn[nH]c1 (centres undefined)	-6	i	-0.7	8	11	0.7	-3	-5.9	-0.6	0.67
O=C(NCCc1csc(-c2ccccc2)n1)c1cccs1	3	i	-0.3	-12	-30	-0.6	50	-12	3.9	0.69
COc1cc(/C=C2\N=C(C)OC2=O)cc(Cl)c1OC(C)=O	-3	i	0.5	6	8	0.1	-7	-2.1	1.3	0.7
O=C(CSc1nnc2ccc(-c3cccnc3)nn12)Nc1ccccc1F	.	i	0.9	6	18	1.6	-12	?	-6.7	0.69
O=C(COC(=O)[C@H](Cc1ccccc1)NC(=O)c1cccs1)NC1CCCCC1	-2	.	1.2	.	.	.	-24	.	-0.7	0.72
COc1ccc2[nH]c(=O)c(CN(CCO)S(=O)(=O)c3ccc4c(c3)OCCO4)cc2c1	5	i	0.2	-3	5	3.4	0	-0.9	-70	0.65
COc1ccc2c(=O)c(-c3ccccc3C)c(C)oc2c1	-1	.	0.9	.	.	.	-11	.	1.1	0.71
COc1ccccc1NC(=O)CSc1n[nH]c(Cc2ccccc2)n1	-1	i	0.0	-19	-16	-1.5	3	-4.9	2.0	0.69
CCn1c(SC(C)C(=O)Nc2ccc3c(c2)OCCO3)nnc1C1CC1 (centres undefined)	.	i	.	-2	6	-2.3	.	-2.6	4.9	0.72
COc1ccc([N+](=O)[O-])cc1NC(=O)COC(=O)C=C(C)C	-4	i	0.3	12	7	-16	.	-5.1	0.4	0.73
CC1(C)Cc2c(sc(NC(=O)c3ccc(Br)o3)c2C#N)CO1	.	.	-1.5	.	.	.	-1	.	7.2	0.72
Cc1nn(-c2ccccc2)c(C)c1NC(=O)COc1ccc(Br)cc1Cl	?	.	0.2	.	.	.	3	.	0.9	0.66
Cc1cccc(C)c1NC(=S)N(CCc1ccncc1)C(C)C	-1	i	-0.3	2	-3	1.0	-1	-8.0	0.6	0.69

In another format: results already given
Below each SMILES – Beta cell apopt, FGF22 binding, Bfl-1 A1 inh, Ecoli rRNA inh, Ecoli rRNA inh OD600, Ecoli rRNA inh RFP, T cruzi repl, MLL AF4-AF9 inh, UCH37 inh, E coli growth
- COc1ccc([N+](=O)[O-])cc1NC(=O)COC(=O)C=C(C)C
  -4, i, 0.3, 12, 7, -16, ., -5.1, 0.4, 0.73
- CC1(C)Cc2c(sc(NC(=O)c3ccc(Br)o3)c2C#N)CO1
  ., ., -1.5, ., ., ., -1, ., 7.2, 0.72

(cont.)
SMILES	Beta cell apopt	FGF22 binding	Bfl-1 A1 inh	Ecoli rRNA inh	Ecoli rRNA inh OD600	Ecoli rRNA inh RFP	T cruzi repl	MLL AF4-AF9 inh	UCH37 inh	E coli growth
O=C(N/C(=C\c1ccco1)C(=O)N1CCOCC1)c1ccco1	-1	.	0.7	.	.	.	-4	-9.3	5.5	0.68
Cc1cc(C)c2cc(CN(CC3CCCO3)S(=O)(=O)c3ccc4c(c3)OCCO4)c(=O)[nH]c2c1 (centres undefined)	-7	.	-0.8	.	.	.	24	.	-3.3	0.68
COc1ccccc1CNCc1cccs1	1	.	1.4	.	.	.	5	.	3.6	0.74
CCOC(=O)C1CCCN(C(=O)CSc2nnc3nc(C)cc(C)n23)C1 (centres undefined)	3	i	-0.1	19	12	0.9	.	-3.1	-7.4	0.7
Cc1ccc(N2C(=O)c3ccccc3C2Nc2ccc(S(=O)(=O)N3CCCCC3)cc2)nc1 (centres undefined)	8	i	0.3	-2	-4	17	37	13	6.2	0.72
Cn1c(CCN2CCN(c3ccc(F)cc3)CC2)nc2cc(NC(=O)c3ccco3)ccc21	0	.	0.3	.	.	.	2	.	3.7	0.73
CCc1nnc(NC(=O)CCN(c2ccc(C)cc2)S(=O)(=O)c2ccccc2)s1	-1	.	1.3	.	.	.	-10	.	2.8	0.68
CCN(CC)CCC(=O)c1ccc(F)cc1	-10	i	-1.2	30	27	2.2	-28	-1.3	1.2	0.64
O=C(NCc1ccccc1Cl)c1cccc2c1C(=O)c1ccc(-c3ccc(OC(F)(F)F)cc3)cc1S2(=O)=O	16	.	10*	.	.	.	.	.	2.6	0.78
COc1ccc(OC)c(S(=O)(=O)N2CCC(C(=O)NCc3ccncc3)CC2)c1	-1	i	0.1	5	12	-2.4	-5	2.1	1.7	0.66
CC(C)OC(=O)CSc1nnc(-c2ccc(C(C)(C)C)cc2)n1N	2	.	-0.1	.	.	.	6	.	4.5	0.69
Cc1ccc(-c2c(C)sc3ncn(CC(=O)N4CCOCC4)c(=O)c23)cc1C	-2	i	-0.5	-8	4	6.0	-8	1.9	5.6	0.67
CC1CC(=O)N(CC(=O)Nc2ccc(F)cc2)c2ccccc2S1(=O)=O (centres undefined)	1	i	-1.1	5	5	-1.9	-3	2.0	-1.0	0.66
Cc1nc(SCC(=O)O)n[nH]1	-7	i	0.4	9	7	1.1	3	-0.7	-0.6	0.77
Cc1cc(Nc2cccc(C(F)(F)F)c2)n2nc(C)nc2n1	-13	.	-0.1	.	.	.	-9	.	4.3	0.73
CCc1ccc(Nc2oc(C)cc(=O)c2C(C)=O)cc1	-1	.	-0.9	.	.	.	-8	.	7.9	0.7
Cc1c(Br)cc(C(=O)NCc2ccco2)c(C)c1C	-2	.	0.4	.	.	.	-3	.	1.8	0.82
C=CCNC(=S)/C(=C(/[O-])c1ccc([N+](=O)[O-])cc1)[n+]1ccccc1	-2	i	-0.4	.	.	.	-8	-4.5	8.7	0.69
CCc1ccc(OCC(O)CN2CCC(CN3C(=O)c4cccc5cccc(c45)C3=O)CC2)cc1 (centres undefined)	1	.	-0.1	.	.	.	56*	.	-45	0.66
O=C(NCCCN1CCOCC1)c1cc2c(s1)CCCC2	-2	.	0.2	.	.	.	-2	.	-4.6	0.7
O=S(=O)(c1ccc(SCc2ccccc2)nc1)N1CCCCC1	-7	i	0.8	0	11	-0.3	.	-6.4	0.6	0.72
COc1ccc(NC(=O)C/C(C)=N/NC(=O)c2cnccn2)cc1	-5	i	0.1	7	0	-1.5	-6	-2.0	.	.
COc1ccc(NC(=O)CCc2ccc(OC)c(OC)c2)cn1	4	i	-0.1	7	2	1.3	-6	0.8	0.6	0.7
CCOC(=O)c1ccc(N2CCN(c3cc(C)ccc3C)CC2)c(N)c1	-4	i	0.0	3	4	-2.4	16	5.8	-92	0.71
Cc1nc2c(cc1C(=O)N/N=C/c1ccc(O)c(O)c1)c(=O)n(C)c(=O)n2C	-7	i	0.3	4	5	-5.6	-7	-13	.	.
O=C(c1cc(-c2ccc(F)cc2)on1)N1CCOCC1	0	i	0.6	.	.	.	-4	2.6	0.3	0.68
Cc1oc(-c2ccc(C(F)(F)F)cc2)nc1CN(Cc1ccccn1)C[C@@H]1CCC(=O)N1	-1	i	-0.5	4	1	0.9	-3	-1.0	-1.6	0.69
CSc1ncccc1C(=O)Nc1ccc(F)c(F)c1F	-3	i	-0.1	9	7	-1.7	-14	6.1	6.1	0.68
CC(=O)Nc1ccc(S(=O)(=O)N2CCN(C(=O)N3CCCCC3)CC2)cc1	-1	i	0.1	3	17	6.1	-1	0.1	0.4	0.67
CCC(=O)OCc1c(C(F)(F)F)nn(C)c1Sc1ccc(F)cc1	-16	.	-0.2	.	.	.	-64	.	2.4	0.69
CCOc1ccc(-c2cc(C(=O)NCCCN3CCCC3)c3ccccc3n2)cc1	4	i	0.0	2	15	7.4	28	3.9	-160	0.69
c1ccc(N2CCN(c3ncnc4scc(-c5cccs5)c34)CC2)cc1	16	.	-1.0	.	.	.	15	.	0.5	0.65
